Screening data: PubChem, several laboratories
Ecoli growth = E. coli growth inhibition | 0.21% of 330,000 active | Escherichia coli growth, OD600, 23 h; hits give low values | OD600 absorbance (no concentration beside the values) | AID 1053175;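 active = OD600 absorbance below the run mean of sample wells minus 3.6 SD, in any replicate, cut at about 0.56 in these data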;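 note: stock transfer was 300 nL into about 60 µL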
UCH37 DUB inh = human UCH37 deubiquitinating enzyme inhibition | purified proteasome/UCH37, Ub-AMC cleavage fluorescence | inhibition, % (no concentration beside the values) | Q9Y5K5 | 0.33% of 330,000 active;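 active = mean of two replicates above 20%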;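 note: 0% = compound-free wells with enzyme and 100% = wells lacking proteasome; stock transfer was 100 nL into about 20 µL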
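assay system = human UCH37 enzyme supplied as purified proteasome complex | amount = proteasome at 0.15 nM in the dispensed enzyme solution | schedule = 30 min compound-proteasome preincubation then 25 min substrate reaction, room temperature | measured by = fluorescence, ex 355 nm, em 460 nm | benchmarks = no-proteasome wells (full inhibition) and compound-free wells (no inhibition)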
B2AR ag = agonists of human beta-2 adrenergic receptor inducing internalization | P07550 | Am2.2-beta2AR cells, FAP receptor internalization, flow cytometry; reference of the scale not given here | response, % (test concentration not listed) | 0.43% of 340,000 active;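 active = response above a set limit, near 3 SD of response in nonfluorescent compounds, cut at about 42% in these data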;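 note: stock transfer was 100 nL into about 11 µL; a reference agonist was the positive control; negative values mostly stem from fluorescent compounds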
Target sequence (P07550 whole entry, looked up): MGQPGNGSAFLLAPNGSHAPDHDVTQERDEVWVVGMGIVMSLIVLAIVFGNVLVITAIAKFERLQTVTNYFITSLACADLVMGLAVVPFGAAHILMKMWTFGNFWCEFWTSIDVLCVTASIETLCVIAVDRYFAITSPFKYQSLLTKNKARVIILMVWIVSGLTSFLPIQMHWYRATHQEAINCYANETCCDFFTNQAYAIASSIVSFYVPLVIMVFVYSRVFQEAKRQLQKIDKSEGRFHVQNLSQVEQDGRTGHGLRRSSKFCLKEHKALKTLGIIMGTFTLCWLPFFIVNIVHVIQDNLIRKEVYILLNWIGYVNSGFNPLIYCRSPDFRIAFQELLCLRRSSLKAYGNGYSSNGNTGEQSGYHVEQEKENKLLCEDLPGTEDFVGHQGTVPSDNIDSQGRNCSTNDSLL
HNF4A DNA FP = change in binding of human HNF4 alpha to DNA; HNF4a-FITC DNA binding, fluorescence polarization, 1 h; activity change, % at 10 µM; 0.3% of 360,000 active; in the data active = activity change above about 30%, passing the limit was not always enough;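 note: controls were the assay level and a saturating level of protein; the project sought stronger binding though the title names inhibitors; some compounds called inactive have numbers as strong as hits; positive values seem to mean higher polarization but the record does not say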
FGF22 binding = binders of recombinant human FGF22 by thermal shift; Q9HCT0; SYPRO orange fluorescence; percent of sucrose octasulfate shift, DMSO zero; calls only at 9.99 µM; 1.5% of 340,000 active; AID 651658;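 active = melting point raised past a set limit in the mean and every replicate; three in four hits are not shown here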
Target sequence (Q9HCT0 whole entry, looked up): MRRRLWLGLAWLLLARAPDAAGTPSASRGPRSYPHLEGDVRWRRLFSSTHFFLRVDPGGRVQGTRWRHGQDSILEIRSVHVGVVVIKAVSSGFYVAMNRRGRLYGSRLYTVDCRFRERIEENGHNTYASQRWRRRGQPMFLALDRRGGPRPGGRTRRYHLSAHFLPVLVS
rRNA inh HTS = inhibitors of bacterial rRNA selective over humanized ribosomes; 1.6% of 350,000 active; AID 720706; E. coli WT GFP vs humanized-ribosome RFP mutants, fluorescence, 24 h; hits give low values; DMSO median 0, no signal -100; GFP signal change (wild-type ribosome), % (concentration not given with the values);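 active = significant combined selectivity score with lowered wild-type GFP, culture density cut under 30%, mutant RFP and density less affected; inactive = any of these conditions unmet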; note: one replicate is shown; some compounds called inactive have numbers as strong as hits
ALR H2O2 inh = inhibitors of human sulfhydryl oxidase ALR. 3.8% of 290,000 active. inhibition, % (concentration not given with the values). P55789. purified ALR, DTT oxidation, H2O2 HRP-luminol luminescence;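 active = mean and each replicate at 75% or more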;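 note: stock transfer was 7.5 nL into about 7.5 µL; 0% = neutral wells and 100% = wells with inactivated enzyme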
Target sequence (P55789 whole entry, looked up): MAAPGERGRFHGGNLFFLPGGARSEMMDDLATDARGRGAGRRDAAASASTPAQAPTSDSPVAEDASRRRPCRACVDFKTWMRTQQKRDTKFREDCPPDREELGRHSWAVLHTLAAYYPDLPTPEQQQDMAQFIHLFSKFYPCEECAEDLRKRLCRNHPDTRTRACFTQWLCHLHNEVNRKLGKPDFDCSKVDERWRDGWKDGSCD
rRNA inh HTS OD600 = recorded beside rRNA inh HTS, whose call it bears; OD600 change, %; measured here: OD600 growth;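 optical density of the mix in the first replicate; 0 = DMSO median and -100 = no signal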
rRNA inh HTS RFP = second read-out of rRNA inh HTS, no call of its own (marks repeat the call); RFP signal change, %; measured here: RFP humanized mutant strains;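 first replicate; 0 = DMSO median and -100 = no signal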
* = called active by the depositor; i = inactive; . = not tested or not shown; + = active, no number; & = joins results of further samples; ! = not confirmed by another sample.

SMILES	Ecoli growth	UCH37 DUB inh	B2AR ag	HNF4A DNA FP	FGF22 binding	rRNA inh HTS	rRNA inh HTS OD600	rRNA inh HTS RFP	ALR H2O2 inh
COc1cc(C2=NOC(C(=O)Nc3ccc(C)cc3)C2)cc(OC)c1OC (stereo unspecified)	0.75	0.9	-3	3.7	.	.	.	.	-25
COc1cccc(CNC(=O)C2CCC(=O)N(CCc3cccc(F)c3)C2)c1 (stereo unspecified)	0.71	-2.4	-1	4.9	i	4	6	0.0	-4
CCN(CC)CCNC(=O)c1ccc2c(=O)n(CCc3ccccc3)c(=O)[nH]c2c1	0.68	-25	-1	3.5	.	.	.	.	7
C[C@@H]1CN([C@@H](C)CO)C(=O)c2cc(Br)cnc2O[C@H]1CN(C)C(=O)C1CC1	.	.	.	-1.0	+!	2&1	13&2	-2.3&-0.1	.
COc1ccc(C(=O)OCCOc2ccccc2C(C)=O)c(O)c1	0.66	1.9	6	1.9	i	-7	-9	-3.6	-5
NC(c1ccccc1)c1cccs1 (stereo unspecified)	.	.	.	-2.5	i	9	9	-1.6	.
CC(C)[C@H](NC(=O)[C@@H]1Cc2c([nH]c3ccccc23)C2c3ccccc3C(=O)N21)C(=O)NCC1CCCO1 (stereo partly specified)	0.65	0.2	-1	-1.6	i	.	.	.	1
COc1ccc(OC)c(C(c2nnnn2CCc2ccccc2)N2CCC(C(N)=O)CC2)c1 (stereo unspecified)	0.77	1.8	-6	-1.3	.	.	.	.	-7
CS(=O)(=O)n1c2ccccc2c(=O)n1-c1ccccc1CCl	.	.	.	-2.9	i	18	32	5.0	.
O=C(Cn1ccc(=O)[nH]c1=O)NCCO	0.69	-0.5	-6	-0.3	i	7	5	-1.0	-9
c1ccc(-c2nc3c4ccccc4ccn3c2CC2CCCCC2)cc1	.	.	.	0.3	i	12	22	6.5	.
CC(C)CNc1ncnc2c1ncn2[C@H]1CN(Cc2cccs2)C[C@@H](CO)O1	.	.	.	-1.0	i	-5	-5	-2.6	.
Cc1cc(C)c2c(c1)NC(C(=O)O)C1CC=CC21 (stereo unspecified)	0.68	-0.7	-6	-40	i	8	19	6.5	.
Cc1onc(-c2ccccc2)c1CNC(=O)CN1C(=O)c2ccccc2C1=O	0.69	2.1	7	-0.9	i	7	17	-1.0	-1
C[C@@H](C(=O)NCc1ccccc1)[C@H]1C[C@]1(C)[C@H](NC(=O)OCc1ccccc1)c1ccccc1	.	-1.3	11	-0.1	i	-16	-24	-12	-5
Cc1ccc(-c2nnc(-c3ccccc3Br)o2)cc1	0.7	3.2	4	-2.3	i	-46	-65	-13	7
CCCCN(C(=O)c1ccc([N+](=O)[O-])s1)c1c(N)n(CCCC)c(=O)[nH]c1=O	0.6	3.9	3	1.5	i	-3	-6	0.9	-47
Cn1c(SCC(=O)NCC2CCCO2)ncc(C(=O)Nc2ccccc2)c1=O (stereo unspecified)	0.67	-141	7	1.0	.	14	15	0.0	53
CN(C)c1cccc(C(=O)N/N=C/c2ccoc2)c1	.	.	11	-2.1	i	7	9	-2.0	19
CCNc1nc(NCC)nc(C(=O)NN)n1	0.72	4.3	6	-3.9	.	.	.	.	12
O=C(CNc1cc(S(=O)(=O)N2CCCC2)ccc1OCC(F)(F)F)Nc1cccc(C(F)(F)F)c1	0.74	0.9	1	-2.5	i	.	.	.	-1
O=C(N/N=C/c1ccccn1)c1ccc(Cl)cc1	.	.	2	0.5	i	-8	-9	-5.2	1
Cn1c(/C=C/c2ccc([N+](=O)[O-])o2)nc2ccccc2c1=O	0.44*	3.6	-370	59*	.	.	.	.	-13
Clc1ccccc1OCCCCN1CCCC1	0.73	4.1	-7	2.5	i	1	12	0.2	-1
COCCn1c(SCC(=O)NC(=O)NC(C)(C)C)nc2ccccc21	0.7	-0.4	-7	-2.0	.	.	.	.	-17

The list goes on; it opens with the five that closed the last part.
SMILES	Ecoli growth	UCH37 DUB inh	B2AR ag	HNF4A DNA FP	FGF22 binding	rRNA inh HTS	rRNA inh HTS OD600	rRNA inh HTS RFP	ALR H2O2 inh
O=C(CNc1cc(S(=O)(=O)N2CCCC2)ccc1OCC(F)(F)F)Nc1cccc(C(F)(F)F)c1	0.74	0.9	1	-2.5	i	.	.	.	-1
O=C(N/N=C/c1ccccn1)c1ccc(Cl)cc1	.	.	2	0.5	i	-8	-9	-5.2	1
Cn1c(/C=C/c2ccc([N+](=O)[O-])o2)nc2ccccc2c1=O	0.44*	3.6	-370	59*	.	.	.	.	-13
Clc1ccccc1OCCCCN1CCCC1	0.73	4.1	-7	2.5	i	1	12	0.2	-1
COCCn1c(SCC(=O)NC(=O)NC(C)(C)C)nc2ccccc21	0.7	-0.4	-7	-2.0	.	.	.	.	-17
CCNC(=O)COC(=O)c1ccc(-c2nc3ccccc3s2)s1	0.71	-86	42	0.7	i	10	7	-2.5	-2
C/C(=N\NC(=O)c1ccc(O)cc1)c1cccc(NC(=O)c2ccc(Cl)cc2)c1	.	.	17	1.4	i	-35*	-2.3*	0.4*	-5
Cc1ccc(CNCCCn2cnc3c(OCc4ccccc4)ncnc32)o1	.	.	-7	-0.7	i	-3	-8	-0.5	.
O=C(COC(=O)C1CC1)NCCNC(=O)COC(=O)C1CC1	0.67	1.9	-4	-2.7	i	8	5	-1.0	-11
CCN(CCn1cccn1)Cc1nc(Cc2cccc(F)c2)no1	0.71	1.1	-3	1.8	i	1	-8	4.3	-8
CCN(CC)S(=O)(=O)c1ccc(NC(=O)c2ccc(N3CCCC3=O)cc2)cc1	0.71	0.9	4	-0.3	i	1	4	-2.9	-3
CSc1ncccc1C(=O)OCc1ccccc1	0.72	5.4	1	-2.2	.	.	.	.	-16
CCCC(C)C(=O)NCc1ccncc1 (stereo unspecified)	0.67	0.1	2	6.2	i	17	11	1.4	-4
O=C(CNS(=O)(=O)c1ccc(Br)s1)NCc1ccccc1	0.54*	1.7	-5	-2.1	i	.	.	.	-1
O=C(Cn1c(-c2ccccc2)noc1=O)Nc1ccc(N2CCCCCC2)cc1	0.75	1.9	1	-0.6	.	.	.	.	17
COc1ccccc1Nc1ncnc2c1c(C)c(C)n2CCO	0.69	-2.2	-5	0.6	i	-9	-2	-1.5	-3
O=C(Cn1[nH]c(=O)c2ccccc2c1=O)OCC(=O)N1CCc2ccccc2C1	0.69	5.8	1	-0.6	.	.	.	.	-2
CCn1c(SCC(=O)NNC(=O)c2ccc(OC)cc2)nnc1-c1cccnc1	0.66	-5.0	-1	2.5	i	3	9	-5.7	0
CC(C)CNC(=S)NNC(=O)c1ccc2c(c1)OCO2	0.63	0.2	-3	2.6	.	.	.	.	1
COc1cccc(NC(=O)CSc2nnc(NC(=O)c3ccco3)s2)c1	0.67	3.9	7	1.8	i	10	12	1.6	-14
COc1ccc(-n2c(-c3ccc(Cl)cc3Cl)n[nH]c2=S)c(OC)c1	.	.	5	1.2	i	-32*	-25*	-1.0*	63
O=C(NC1CCCCC1)C1CCN(C(=O)NCc2ccccc2)CC1	0.67	1.0	5	-1.1	.	.	.	.	-5
CC[C@]12c3[nH]c4cc(-c5ccco5)ccc4c3CCN1C(=O)[C@@H](CC(=O)NCc1ccco1)C[C@@H]2C(=O)N1CCN(C(=O)C2CC2)CC1	0.69	-28	-4	2.6	i	8	-6	2.3	.
O=c1c2ccccc2nc(SCc2cc(F)cc3c2OCOC3)n1Cc1ccco1	0.71	0.5	-1	0.7	.	.	.	.	-7
COc1ccccc1CCc1nnc(CCC(=O)NC(C)Cn2nc(C)cc2C)o1 (stereo unspecified)	0.74	2.5	-2	1.5	i	7	-1	0.9	4
COc1ccc(S(=O)(=O)n2nc(OC(=O)c3ccc(C)cc3)cc2N)cc1	0.72	5.4	2	0.3	.	.	.	.	.
Cc1cc(NC(=O)c2ccc(S(=O)(=O)N3CCOCC3)cc2)nc2c1c(=O)oc1ccccc12	0.75	-1.4	.	.	.	.	.	.	1
Cc1cc(C)cc(NC(=O)c2sc3nc4n(c(=O)c3c2C)CCC4)c1	0.68	1.1	-2	4.7	i	-5	-7	-3.8	-10
Cc1cccc(NC(=O)CN2CCSc3ccccc32)c1	0.67	-2.2	-3	0.7	i	8	2	3.0	.
CC(C)n1cc(/C=C2\NC(=O)N(c3cccc(Cl)c3)C2=O)c2ccccc21	0.73	-6.3	5	6.1	.	11	7	-2.2	.
New compounds follow
SMILES	Ecoli growth	UCH37 DUB inh	B2AR ag	HNF4A DNA FP	FGF22 binding	rRNA inh HTS	rRNA inh HTS OD600	rRNA inh HTS RFP	ALR H2O2 inh
CCN(CC)S(=O)(=O)c1ccc(C(=O)NC2=C(C(=O)OC)SCC2)cc1	0.73	4.1	6	-0.8	.	.	.	.	3
CCN(c1ccccc1)S(=O)(=O)c1ccc(C(=O)Nc2nnc(CSC)o2)cc1	0.65	1.2	-5	-1.1	i	-51	-76	-17	.
COc1ccc(-n2nnnc2SCC(N)=O)cc1	0.7	2.5	2	1.6	.	.	.	.	0
CC(C)C[C@H](NC(=O)c1[nH]cnc1C(=O)N[C@@H](Cc1ccccc1)C(=O)OC(C)(C)C)C(=O)OCc1ccccc1	.	5.4	7	2.0	i	10	5	1.6	-5
Cc1c(C)[n+](=O)c2c(n1[O-])CCC2	0.67	-1.5	4	0.3	.	.	.	.	1
Cc1ccc(NC(=O)CCC(=O)NNS(=O)(=O)c2ccccc2)cc1C	0.72	-1.9	17	0.3	.	.	.	.	22
N#CC1=C(N)N(c2ccccc2Sc2ccccc2)C(=O)C1	0.77	2.8	4	1.9	.	.	.	.	3
CC(C)c1nc2cc(C(=O)N(C)Cc3ccc(F)cc3)ccc2o1	0.74	0.3	-8	2.8	i	1	-7	-2.5	2
COc1cc(C(=O)NNC(=O)CN2C(=O)NC3(CCCC3)C2=O)cc(OC)c1OC	0.7	3.0	-1	-1.2	i	4	-13	-3.6	0
O=C(Nc1nnc(-c2ccc(Cl)cc2)o1)c1nc2ccccc2s1	0.71	-164	1	-1.2	i	-54	-78	-32	4
NC(=O)c1sc2nc3c(c(-c4ccc(Cl)cc4)c2c1N)CCCC3	0.64	-88	5	-0.9	.	.	.	.	-12
Clc1ccc(-c2nc3ccc(Br)cn3c2Cc2cccc(Cl)c2)cc1	.	.	.	3.1	i	-8	-24	-1.5	.
O=C(NC1CCN(C(=O)N2c3ccccc3Sc3ccccc32)CC1)c1ccccc1Cl	0.69	0.1	19	1.3	.	.	.	.	2
Cc1ccc(S(=O)(=O)N2C[C@H]3C(=O)C[C@@H](c4cccc(C)c4)N(S(=O)(=O)c4ccc(C)cc4)[C@H]3C[C@H]2c2ccccc2)cc1	.	.	.	-1.0	i	0	18	0.8	.
CC12CCC(C1)C(C)(C)C2NS(=O)(=O)c1ccc(F)cc1 (stereo unspecified)	.	.	0	2.9	i	-26	-67	2.9	-15
CCN(CC)S(=O)(=O)c1ccc(NC(=O)c2cccnc2Cl)c(NC(=O)c2cccnc2Cl)c1	0.67	5.5	1	2.4	i	-8	-3	-0.6	-17
Cc1c(Nc2nc3ccccc3n3cnnc23)cccc1[N+](=O)[O-]	0.69	4.5	-28	-2.3	i	17	4	2.5	-5
Cc1csc(NC(=O)CN2C(=O)c3ccccc3C2=O)c1C(N)=O	0.67	3.7	0	-1.3	i	10	-3	4.5	-20
Cc1cccc(N2CCN(c3ccc4cc(S(=O)(=O)N5CCCCC5)ccc4n3)CC2)c1C	0.71	-349	-4	4.3	i	0	3	-1.5	-2
O=C(CCCOc1ccccc1)Nc1ccc(Cl)c(S(=O)(=O)N2CCOCC2)c1	0.7	2.1	5	1.6	i	-12	-37	-4.9	-33

An excerpt; rates above refer to the full screens.
